Ecoli rRNA inh: inhibitors of bacterial rRNA selective over humanized ribosomes; E. coli WT GFP vs humanized-ribosome RFP mutants, fluorescence, 24 h; active compounds read low; DMSO median 0, no signal -100; 350,000 tested, 1.6% active; GFP signal change (wild-type ribosome), % (concentration not given with the values); AID 720706;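 active = significant combined selectivity score with lowered wild-type GFP, culture density cut under 30%, mutant RFP and density less affected; inactive = any of these conditions unmet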; also: one replicate is shown; some compounds called inactive have numbers as strong as hits
MLL AF4-AF9 inh: MLL-AF4/AF9 protein interaction inhibition; AlphaScreen, biotin-AF4 peptide binding to FLAG-AF9; inhibition, % at 10 µM; 350,000 tested, 0.47% active; AID 651704;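 active = every replicate reaching a set inhibition limit, whatever the replicate mean, cut at about 25% in these data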;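 also: 0% = plate neutral control median and 100% = total signal loss; the record names both 10 and 1 µM as test concentration; the first replicate is given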
Target sequence (P42568 whole entry, looked up): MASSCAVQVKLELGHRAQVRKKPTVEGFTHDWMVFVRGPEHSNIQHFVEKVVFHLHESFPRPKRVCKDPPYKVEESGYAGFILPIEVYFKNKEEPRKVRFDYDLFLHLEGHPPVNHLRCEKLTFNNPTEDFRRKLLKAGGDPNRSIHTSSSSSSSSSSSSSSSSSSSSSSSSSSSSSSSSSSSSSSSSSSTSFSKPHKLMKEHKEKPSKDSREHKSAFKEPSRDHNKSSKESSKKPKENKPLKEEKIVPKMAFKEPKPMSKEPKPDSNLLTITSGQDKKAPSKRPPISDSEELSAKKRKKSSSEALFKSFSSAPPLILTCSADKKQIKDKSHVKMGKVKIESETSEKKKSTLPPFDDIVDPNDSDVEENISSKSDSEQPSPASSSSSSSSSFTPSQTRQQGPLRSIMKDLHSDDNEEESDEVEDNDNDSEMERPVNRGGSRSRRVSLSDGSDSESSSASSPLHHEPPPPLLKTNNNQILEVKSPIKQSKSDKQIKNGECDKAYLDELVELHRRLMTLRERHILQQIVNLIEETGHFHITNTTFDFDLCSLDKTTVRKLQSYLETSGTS
Ecoli rRNA inh OD600: further read-out of Ecoli rRNA inh, marked with its call; OD600 change, %; measured here: OD600 growth;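 optical density of the mix in the first replicate; 0 = DMSO median and -100 = no signal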
Ecoli rRNA inh RFP: second read-out of Ecoli rRNA inh, no call of its own (marks repeat the call); RFP signal change, %; measured here: RFP humanized mutant strains;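 first replicate; 0 = DMSO median and -100 = no signal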
* marks the source's active call; other numbers are inactive results. This is a subset; the hit share may differ from the screen's.

Ecoli rRNA inh,Ecoli rRNA inh OD600,molecule,Ecoli rRNA inh RFP,MLL AF4-AF9 inh
2.9,5.2,Cc1noc(C)c1NC(=O)Nc1ccc2c(c1)CC(=O)N([C@@H](C)CO)C[C@H](C)[C@@H](CN(C)C(=O)Nc1cccc3ccccc13)O2,-0.1,0.5
-0.8,-1.1,CCCNC(=O)N(C)C[C@@H]1Oc2cc(-c3ccccc3)ccc2S(=O)(=O)N([C@@H](C)CO)C[C@H]1C,-3.5,-0.6
0.1,7.8,C[C@@H]1CCCCO[C@@H](CN(C)S(=O)(=O)c2ccc(F)cc2)[C@@H](C)CN([C@@H](C)CO)C(=O)c2cc(NS(=O)(=O)c3ccc(Cl)cc3)ccc2O1,-3.4,-1.1
2.4,1.4,C[C@@H]1CN([C@@H](C)CO)C(=O)c2cc(NS(C)(=O)=O)ccc2O[C@@H](C)CCCCO[C@@H]1CN(C)C(=O)c1ccncc1,-0.3,-3.6
3.2,8.1,COc1ccccc1-c1cnc2c(c1)C(=O)N([C@H](C)CO)C[C@H](C)[C@H](CN(C)C(=O)CN(C)C)O2,0.0,-1.1
1.4,5.8,CN(C)CC#Cc1ccc([C@@H]2[C@H](CO)N3C(=O)CN(C(=O)Cc4ccccc4)C[C@@H]23)cc1,-1.0,2.4
0.6,4.3,COCC(=O)Nc1ccc2c(c1)OC[C@@H](C)N(C(=O)c1cnccn1)C[C@H](C)[C@@H](OC)CN(C)C2=O,-0.7,0.5
-8.1,-9.5,C[C@@H]1CN([C@H](C)CO)S(=O)(=O)c2ccc(-c3cncnc3)cc2O[C@H]1CN(C)Cc1ccccc1,-3.6,9.2
2.0,-10.9,CC(C)C#Cc1ccc([C@@H]2[C@H]3CN(S(=O)(=O)Cc4ccccc4)CCCCN3[C@H]2CO)cc1,12.1,-1.8
-3.4,-6.1,O=C(C[C@@H]1C[C@@H]2c3cc(NS(=O)(=O)c4ccccc4)ccc3O[C@@H]2[C@H](CO)O1)NC1CCCC1,-2.5,0.6
-0.4,14.3,C[C@@H]1CN([C@@H](C)CO)C(=O)c2cccc(NC(=O)Nc3ccc(C(F)(F)F)cc3)c2O[C@@H]1CN(C)Cc1ccc(Oc2ccccc2)cc1,4.0,2.8
-15.9,-32.3,CCOC(=O)C1=CCN(S(=O)(=O)c2ccc(Cl)cc2)C1c1ccccc1 (configuration not stated),-5.8,-2.7
-2.6,-2.2,COc1ccc(CN(C)C[C@H]2OCCCC[C@@H](C)Oc3ccc(NC(=O)c4ccncc4)cc3C(=O)N([C@H](C)CO)C[C@H]2C)cc1,1.5,3.2
-1.1,-1.0,CC=Cc1ccc2n(c1=O)C[C@@H]1[C@@H](CO)[C@H](C(=O)NCC)N(Cc3cccc(F)c3)[C@H]21 (mixture of isomers),1.3,-1.2
2.6,-0.9,O=C(C[C@H]1C[C@@H]2c3cc(NC(=O)C4CCOCC4)ccc3O[C@@H]2[C@H](CO)O1)NCc1ccccn1,-0.7,-0.5
-10.8,-8.3,COc1ccc(S(=O)(=O)N(C)C[C@@H]2Oc3c(NC(=O)Nc4ccc5c(c4)OCO5)cccc3C(=O)N([C@H](C)CO)C[C@@H]2C)cc1,6.0,7.1
-0.4,0.6,COc1ccc(NC(=O)Nc2cccc3c2O[C@H](CN(C)Cc2ccncc2)[C@@H](C)CN([C@@H](C)CO)C3=O)cc1,-1.9,-0.5
-2.0,10.7,O=S(=O)(Cc1ccccc1)N1CCCCN2[C@@H](CO)[C@@H](c3ccc(-c4cncnc4)cc3)[C@@H]2C1,-1.7,-3.7
0.6,1.0,C[C@@H]1CN([C@@H](C)CO)C(=O)c2cccc(NC(=O)c3cnccn3)c2O[C@H]1CN(C)CC1CC1,-2.2,-3.6
-2.4,-8.2,COc1ccc2c3c(n(C)c2c1)[C@@H](CO)N(Cc1ccccc1OC)CC31CN(C(=O)C2CC2)C1,2.4,3.3
-32.3,-57.9,O=C(NCC[C@@H]1CC[C@H](NC(=O)C2CC2)[C@@H](CO)O1)Nc1ccc(Cl)cc1,11.7,8.4
-0.6,-16.4,C[C@@H]1CN([C@H](C)CO)C(=O)c2c(c3ccccc3n2C)-c2ccccc2CO[C@@H]1CN(C)Cc1cccnc1,14.9,2.6
0.8,-4.4,COCC(=O)N1C[C@@H](C)[C@H](OC)CN(C)C(=O)c2cc(NS(C)(=O)=O)ccc2OC[C@@H]1C,-1.4,-1.2
-10.6,-11.1,O=C(C[C@H]1C[C@@H]2c3cc(NC(=O)c4ccc5c(c4)OCO5)ccc3O[C@@H]2[C@@H](CO)O1)NCc1ccc(Oc2ccccc2)cc1,1.6,-1.8
3.3,0.5,C[C@H]1CN([C@@H](C)CO)C(=O)c2cc(NC(=O)Cn3cnnn3)ccc2O[C@H]1CN(C)S(=O)(=O)c1ccc(Cl)cc1,-3.3,-13.3

3 compounds picked at random from the list so far:
Ecoli rRNA inh,Ecoli rRNA inh OD600,molecule,Ecoli rRNA inh RFP,MLL AF4-AF9 inh
2.9,5.2,Cc1noc(C)c1NC(=O)Nc1ccc2c(c1)CC(=O)N([C@@H](C)CO)C[C@H](C)[C@@H](CN(C)C(=O)Nc1cccc3ccccc13)O2,-0.1,0.5
-15.9,-32.3,CCOC(=O)C1=CCN(S(=O)(=O)c2ccc(Cl)cc2)C1c1ccccc1 (configuration not stated),-5.8,-2.7
-0.4,14.3,C[C@@H]1CN([C@@H](C)CO)C(=O)c2cccc(NC(=O)Nc3ccc(C(F)(F)F)cc3)c2O[C@@H]1CN(C)Cc1ccc(Oc2ccccc2)cc1,4.0,2.8

Next section.
Ecoli rRNA inh,Ecoli rRNA inh OD600,molecule,Ecoli rRNA inh RFP,MLL AF4-AF9 inh
-2.0,5.1,C[C@@H]1CN([C@H](C)CO)C(=O)c2cc(C3=CCCCC3)cnc2O[C@H]1CN(C)C(=O)c1cccnc1,2.1,-2.6
3.4,-0.4,O=C(C[C@@H]1CC[C@@H](NC(=O)NC2CCCC2)[C@@H](CO)O1)NCc1ccc(F)cc1,0.0,-0.1
1.8,6.0,COCC(=O)N1C[C@H](C)[C@@H](OC)CN(C)C(=O)c2ccc(NC(=O)NC(C)C)cc2OC[C@H]1C,-4.1,2.3
2.8,6.8,O=C(Nc1nccs1)[C@H]1[C@H](CO)[C@H]2Cn3c(cccc3=O)[C@H]2N1C(=O)C1CC1,-5.5,-3.0
-2.3,-7.5,C[C@H]1CN([C@@H](C)CO)C(=O)c2c(c3ccccc3n2C)-c2ccccc2CO[C@H]1CN(C)C(=O)c1ccncc1,0.6,-1.7
-2.1,-10.6,CC(=O)N(C)C[C@H]1Oc2ncc(/C=C/c3ccccc3)cc2C(=O)N([C@@H](C)CO)C[C@H]1C,-0.4,-3.7
-0.4,12.9,O=C(C[C@H]1CC[C@H]2[C@@H](COC[C@@H](O)CN2Cc2ccccc2F)O1)NC1CCC1,0.6,-1.9
3.5,1.4,C[C@@H]1CN([C@H](C)CO)C(=O)Cc2cc(NS(=O)(=O)c3ccccc3)ccc2O[C@@H]1CN(C)Cc1ccc(C(F)(F)F)cc1,2.4,-10.3
1.8,0.8,COCC(=O)Nc1ccc2c(c1)C(=O)N(C)C[C@H](OC)[C@H](C)CN(Cc1cccnc1)[C@H](C)CO2,-0.6,0.5
2.4,-3.0,C[C@@H]1CN([C@H](C)CO)C(=O)c2cccc(NC(=O)c3ccncc3)c2O[C@@H]1CN(C)Cc1ccc(Cl)c(Cl)c1,2.7,0.0
2.8,1.8,C[C@@H]1CCCCO[C@@H](CN(C)C(=O)Nc2ccccc2)[C@@H](C)CN([C@@H](C)CO)C(=O)c2cc(NC(=O)Nc3ccc(C(F)(F)F)cc3)ccc2O1,-3.8,35.3*
-61.1,-80.0,COc1ccccc1Cc1c(-c2ccccc2)nc2ccc(C)cn12,-19.2,2.2
-1.8,0.4,C[C@H]1CN([C@@H](C)CO)S(=O)(=O)c2ccc(-c3cccc(F)c3)cc2O[C@@H]1CN(C)S(=O)(=O)c1ccccc1,1.7,0.7
1.4,6.5,C[C@H](CO)N1C[C@H](C)[C@H](CN(C)C(=O)Nc2cccc3ccccc23)Oc2ncc(-c3cc4ccccc4o3)cc2C1=O,-1.5,-1.5
3.0,5.8,Cc1noc(C)c1NC(=O)Nc1ccc2c(c1)C(=O)N([C@H](C)CO)C[C@H](C)[C@H](CN(C)S(=O)(=O)c1cn(C)cn1)OCCCC[C@@H](C)O2,-1.2,-2.8
-2.9,-5.6,C[C@@H]1CCCCO[C@H](CN(C)C(=O)Nc2ccccc2)[C@H](C)CN([C@@H](C)CO)C(=O)c2cc(NC(=O)c3ccncc3)ccc2O1,0.1,-0.5
-2.4,3.2,Cc1ccc(S(=O)(=O)Nc2ccc3c(c2)CC(=O)N([C@H](C)CO)C[C@H](C)[C@@H](CN(C)C(=O)NC(C)C)O3)cc1,-1.6,-1.4
-9.3,-42.2,O=C(NCC1CC1)[C@@H]1[C@@H](CO)[C@@H]2Cn3c(ccc(-c4cccc(F)c4)c3=O)[C@@H]2N1CC1CCCC1,3.0,5.5
1.7,2.6,C[C@@H]1CN([C@H](C)CO)C(=O)c2cc(-c3ccncc3)cnc2O[C@H]1CN(C)C(=O)Cc1ccccn1,-3.1,-2.6
-26.7,-39.3,CC(C)c1ccc(C(=O)N2CCCC(c3cc(C(=O)Nc4ccc5c(c4)OCO5)no3)C2)cc1 (configuration not stated),-7.7,1.7
-1.7,-5.5,O=C(Nc1cc(F)ccc1F)N1C[C@H]2[C@@H](c3ccccc31)[C@@H](CO)N2Cc1ccncc1,1.6,0.7
-3.0,4.0,C[C@@H]1CCCCO[C@H](CN(C)C(=O)C2CCCCC2)[C@H](C)CN([C@@H](C)CO)C(=O)c2cc(NC(=O)CCCCCC(=O)Nc3ccccc3N)ccc2O1,-1.0,-3.0
-2.3,-1.8,Cc1ccc(S(=O)(=O)N(C)C[C@@H]2Oc3ccc(N(C)C)cc3CC(=O)N([C@@H](C)CO)C[C@H]2C)cc1,0.4,11.7
3.5,0.8,Cc1ccc(S(=O)(=O)Nc2ccc3c(c2)C(=O)N([C@H](C)CO)C[C@@H](C)[C@H](CN(C)S(=O)(=O)c2c(C)noc2C)OCCCC[C@H](C)O3)cc1,1.7,-1.3
16.9,10.2,COC(=O)C[C@H]1CC[C@H](NC(=O)Nc2ccccc2F)[C@@H](CO)O1,1.1,1.5
2.2,-1.0,CCNC(=O)C[C@@H]1CC[C@H]2[C@H](COc3ccc(NC(C)=O)cc3C(=O)N2C)O1,-1.5,-2.0
13.6,12.8,COc1cc(CN2C[C@@H](CO)O[C@@H](n3cnc4c(NCc5ccco5)ncnc43)C2)cc(OC)c1OC,2.0,-0.1
0.4,8.3,COCC#Cc1cnc2c(c1)C(=O)N([C@@H](C)CO)C[C@@H](C)[C@@H](CN(C)C(=O)c1cnccn1)O2,-1.2,-4.3
3.1,10.8,Cc1noc(C)c1NC(=O)N(C)C[C@H]1Oc2ccc(NS(=O)(=O)c3ccc(Cl)cc3)cc2CC(=O)N([C@@H](C)CO)C[C@@H]1C,-2.2,-2.1
3.6,-3.4,COC(=O)C[C@H]1CC[C@H](NC(=O)c2ccccc2)[C@H](CO)O1,-2.6,-2.2
-5.4,-0.2,COc1ccccc1S(=O)(=O)N[C@H]1CC[C@H](CCn2cc(C3CCCCC3)nn2)O[C@@H]1CO,-1.1,1.1
3.8,-1.5,COc1ccccc1CNC(=O)C[C@@H]1C[C@H]2c3cc(NS(C)(=O)=O)ccc3O[C@H]2[C@H](CO)O1,0.1,-2.0
2.4,-2.8,COc1ccc(NC(=O)N(C)C[C@H]2OCCCC[C@@H](C)Oc3ccc(NS(=O)(=O)c4ccc(C)cc4)cc3C(=O)N([C@@H](C)CO)C[C@@H]2C)cc1,3.3,2.5
-6.3,-4.7,COC(=O)C[C@@H]1CC[C@@H]2[C@@H](COc3ccc(NC(=O)Nc4cccc(C#N)c4)cc3C(=O)N2C)O1,2.0,0.0
-60.1,-76.2,O=C(Nc1cccc(F)c1)N1CCCCN2[C@@H](CO)[C@H](c3ccc(-c4ccccc4F)cc3)[C@@H]2C1,-13.4,0.9
-2.8,-17.2,C[C@@H]1CN([C@H](C)CO)C(=O)c2cccc(NS(=O)(=O)c3cccs3)c2O[C@H]1CN(C)Cc1ccc(C(F)(F)F)cc1,-0.4,-0.4
1.5,-14.8,CCc1nc2c(OCC(=O)c3ccc(F)cc3)cccn2c1N(C)C(=O)COc1ccccc1,5.7,1.6
8.2,7.9,COc1ccc2c3c([nH]c2c1)[C@H](CO)N(C(=O)c1ccncc1)CC31CN(C)C1,-0.6,7.6
1.3,4.6,C[C@@H]1CN([C@H](C)CO)C(=O)c2cc(-c3ccccc3F)cnc2O[C@H]1CN(C)Cc1cccc(C(=O)O)c1,-1.4,-4.9

3 consecutive compounds from above, quoted:
Ecoli rRNA inh,Ecoli rRNA inh OD600,molecule,Ecoli rRNA inh RFP,MLL AF4-AF9 inh
3.1,10.8,Cc1noc(C)c1NC(=O)N(C)C[C@H]1Oc2ccc(NS(=O)(=O)c3ccc(Cl)cc3)cc2CC(=O)N([C@@H](C)CO)C[C@@H]1C,-2.2,-2.1
3.6,-3.4,COC(=O)C[C@H]1CC[C@H](NC(=O)c2ccccc2)[C@H](CO)O1,-2.6,-2.2
-5.4,-0.2,COc1ccccc1S(=O)(=O)N[C@H]1CC[C@H](CCn2cc(C3CCCCC3)nn2)O[C@@H]1CO,-1.1,1.1

Bioassay records (PubChem)
